# Bioassay records as filed in PubChem.
# SARS PLP yeast – inhibitors of SARS-CoV papain-like protease in yeast. S. cerevisiae expressing SARS-CoV PLpro, growth rescue; control for the full effect not named in the record. Potency, µM (series often up to 32.9 µM), without a hit: at the highest dose activity, positive = growth rescue. 330,000 tested, 0.19% active; also: 0% is about no effect; nearly all actives have a fitted effect of over 55% in size; growth read by luminescence after 48 h
# Cruzain inh noDet – cruzain (T. cruzi) inhibition without detergent. P25779. 200,000 tested, 2.3% active. purified cruzain, Z-FR-AMC fluorescence, no detergent. Potency, µM, for the others: max response, negative = inhibition, actives largely listed as inhibitors; active = well fitted curve in the direction sought with a large enough effect; inconclusive = small, poorly fitted or top-dose-only effect, or another doubt; inactive = no such curve, though single readings can be large; an effect the other way counts as inactive or inconclusive;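 also: plate controls were enzyme without inhibitor for no effect and buffer without enzyme for full effect; nearly all actives have a fitted effect of over 40% in size; top concentration of the series not given in the record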
# Target sequence (P25779 123-467 limits assumed): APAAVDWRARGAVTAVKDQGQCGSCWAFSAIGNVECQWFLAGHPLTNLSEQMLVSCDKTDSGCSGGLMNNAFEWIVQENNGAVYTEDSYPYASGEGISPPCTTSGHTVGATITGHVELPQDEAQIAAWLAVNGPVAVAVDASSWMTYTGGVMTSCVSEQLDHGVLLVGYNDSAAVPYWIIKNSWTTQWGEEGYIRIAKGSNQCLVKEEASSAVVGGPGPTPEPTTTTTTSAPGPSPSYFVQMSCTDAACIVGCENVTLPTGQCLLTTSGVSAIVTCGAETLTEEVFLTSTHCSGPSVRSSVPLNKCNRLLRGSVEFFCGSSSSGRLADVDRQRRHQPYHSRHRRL
#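 Purified cruzain at 1.5 nM, pre-incubated 15 min with compound at room temperature in 100 mM sodium acetate pH 5.5, 5 mM DTT, 0.00005% Triton X-100. Reaction started with 2 uM Z-FR-AMC; AMC fluorescence increase over 60 s gives rate.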
# RE007 growth inh – less growth of the S. pombe RE007 Vpr strain; S. pombe RE007 Vpr strain, BacTiter-Glo ATP luminescence, 24 h; control for the full effect not named in the record; Potency, µM (doses to about 92.2 µM), for the others: top-dose activity change, negative = less growth; 360,000 tested, 0.21% active; active = well fitted falling curve with a large enough effect; inconclusive = small, poorly fitted or top-dose-only effect; inactive = no such curve, though single readings can be large or run the other way;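 also: % is scaled to controls: 0 for no effect and ±100 for the full control effect; nearly all actives have a fitted effect of over 50% in size; the assay follows cell death caused by Vpr and the record does not say whether a fall means rescue or toxicity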
#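 Fission yeast strain RE007, carrying one chromosomally integrated HIV-1 vpr copy, was seeded at OD 0.01 in PMG+AL medium with 23 nL pinned compound. After 24 h at 30 °C and 99% humidity, viability was read by BacTiter-Glo luminescence.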
# Marburg entry inh – blocks Marburg virus binding to or entry into cells | Marburg virus pseudotyped entry inhibition, cell reporter; control for the full effect not named in the record; about a third of the inactives were read at about 46 µM | Potency, µM (highest dose often 37.8 µM), without a hit: at the top dose activity change, negative = inhibition, usual class: inhibitors | 300,000 tested, 1.8% active | AID 540276; active = well fitted inhibition curve with a large enough effect; inconclusive = small, poorly fitted or top-dose-only effect, or effect the other way; inactive = flat fitted curve, though single readings scatter; tested in HEK293 cells; about a fifth of its hits are not listed in these tables; also: % is scaled to controls: 0 for no effect and ±100 for the full control effect; luciferase read-out
# 2A StopGo – FMDV 2A StopGo reporter, luciferase signal. human cells with a luciferase reporter of 2A StopGo recoding; control for the full effect not named in the record. Potency, µM (series often up to 57.9 µM), for the others: top-dose signal change, negative = less light. 410,000 tested, 1.2% active; active = well fitted falling curve with a large enough effect; inconclusive = small, poorly fitted or top-dose-only effect; inactive = no such curve, though single readings can be large or run the other way; tested in HEK293T cells; also: % is scaled to controls: 0 for no effect and ±100 for the full control effect; nearly all actives have a fitted effect of over 45% in size; luciferase light after 4 h
# Lassa entry inh – Lassa virus entry inhibition. 300,000 tested, 1.2% active. Lassa virus pseudotype entry inhibition, cell reporter; control for the full effect not named in the record. Potency, µM (highest dose often 37.9 µM), without a hit: at the highest dose activity change, negative = inhibition, hits mostly inhibitors. AID 540256; active means well fitted inhibition curve with a large enough effect; inconclusive means small, poorly fitted or top-dose-only effect, or effect the other way; inactive means flat fitted curve, though single readings scatter; tested in HEK293 cells; also: % is scaled to controls: 0 for no effect and ±100 for the full control effect; nearly all actives have a fitted effect of over 50% in size; luciferase read-out
# Cruzain inh Det – inhibitors of Trypanosoma cruzi cruzain with detergent; Potency, µM, for the others: max response, negative = inhibition, most hits filed as inhibitors; P25779; purified cruzain, Z-FR-AMC fluorescence, 0.01% Triton; 200,000 tested, 0.43% active; active = well fitted curve in the direction sought with a large enough effect; inconclusive = small, poorly fitted or top-dose-only effect, or another doubt; inactive = no such curve, though single readings can be large; an effect the other way counts as inactive or inconclusive;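 also: plate controls were neutral wells for no effect and buffer without enzyme for full effect; nearly all actives have a fitted effect of over 40% in size; top concentration of the series not given in the record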
#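 Detergent-containing arm of a paired screen for aggregation-based inhibition: 0.01% Triton X-100 present. Cruzain at 1.5 nM cleaved 2 uM Z-FR-AMC at pH 5.5 with 5 mM DTT; AMC fluorescence gain over 60 s measured activity.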
# NS1 function inh – blocks influenza NS1 protein function; S. cerevisiae slowed by influenza A NS1, growth recovery by OD600; AID 2326; 270,000 tested, 0.4% active; Potency, µM (series often up to 46.1 µM), inactives show at the highest dose activity, positive = more growth; also: actives are rising curves; nearly all actives have a fitted effect of over 50% in size
#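 OD600 was taken as the measure of yeast growth restored by compound in an NS1-expressing S. cerevisiae strain. Cells had been washed out of glucose medium and diluted 1:100 into galactose -URA medium, pH 6.0.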
# Active calls of the source: *; ? = inconclusive; . = not tested or not shown; & = joins results of further samples; [ ] = dose if it differs, or a comment. Unless noted, calls follow the shape of the dose curve; as a rule, active means well fitted rising curve with a large enough effect; inconclusive means small, poorly fitted or top-dose-only effect; inactive means no such curve, though single readings can be large or run the other way. Potency is read from the fitted curve at half-maximal effect.
SMILES,SARS PLP yeast,Cruzain inh noDet,RE007 growth inh,Marburg entry inh,2A StopGo,Lassa entry inh,Cruzain inh Det,NS1 function inh
O=C(OCC(=O)N1CCN(C(=O)COC(=O)c2ccc(O)cc2O)CC1)c1ccc(O)cc1O,2.3%,.,-5.9%,-15.2%,-6.9%,-0.9%,.,.
O=C(NNC(=O)c1ccccc1O)c1ccc(Br)cc1,0.9%,.,9.4%,?,21.4%,-22.8%[46.1 µM],.,12.9%
CC(=O)N(C(C)=O)c1c(C#N)c(C)n(-c2ccccc2)c1C(=O)c1ccccc1,-3.2%,-2.8%,2.8%,-16.5%,?,?,5.5%,-15.1%
CCC(C)NC(=O)Nc1ccc(Br)cc1 (stereo not given),-0.3%,.,-18.4%,?,6.0%,3.2%[46.1 µM],.,.
O=C(O)CCc1ncc(C(F)(F)F)cc1Cl,2.2%,-1.1%,-9.4%,18.9%,2.7%,11.5%,-8.0%,-1.7%
COc1ccc(-c2cn3c(n2)sc2cc(C(=O)NC4CCCCCC4)ccc23)cc1,.,-7.8%,.,.,13.2%,-2.9%[46.1 µM],-4.6%,.
O=C(NC1CCCC1)C1CCCN1C(=O)Nc1ccc(Cl)cc1 (stereo not given),-4.6%,-1.4%,-1.6%,-4.0%,6.1%,-3.3%,8.3%,1.5%
Cc1oc(C(=O)O)cc1COc1ccccc1Cl,-1.4%,-1.4%,12.9%,11.5%[46.1 µM],33.2%,0.1%,3.9%,-0.7%
COc1ccc(NC(=O)CC2C(=O)N(c3ccc(OC)cc3)C(=O)N2CCc2cccs2)cc1 (stereo not given),-8.5%,7.2%,5.5%,-19.0%,14.5%,9.2µM*,-4.9%,-9.9%
N#Cc1c(Sc2ncc(C(F)(F)F)cc2Cl)nsc1C/C=N\OCc1c(F)cccc1Cl,3.1%,3.98µM*,-17.3%,-3.0%,0.0%,-1.3%,-5.9%,14.0%
CCOC(=O)CCC(NC(=O)c1ccc(NCN2C(=O)c3ccccc3C2=O)cc1)C(=O)OCC (stereo not given),-17.8%,6.3%,-1.7%,19.2%&19.2%[46.1 µM],0.0%,?,-0.6%,0.2%
Cc1cccc(C)c1NC(=O)CSc1nnc(-c2ccccc2)n1Cc1ccc2c(c1)OCO2,3.5%,9.3%,5.4%,?,-5.6%,?,1.3%,10.2%
COc1ccc(CCN2CN(S(=O)(=O)c3ccccc3)c3nc4ccccc4nc32)cc1OC,-9.5%,80.8%,2.4%,-25.9%,-10.5%,-4.1%,-5.7%,-7.6%
O=C(Sc1ccc(Cl)cc1)c1ccccn1,.,.,22.4µM*,?,-22.3%,-27.2%[46.1 µM],.,.
Cc1cc(N2C(=O)C3C4CCC(C4)C3C2=O)no1 (stereo not given),4.7%,.,-7.1%,?,5.7%,-12.4%[46.1 µM],.,6.3%
CCOC(=O)c1c(C)oc2nc(C)nc(N3CCN(c4cccc(C)c4C)CC3)c12,.,5.7%,.,.,0.0%,?,-1.3%,.
O=C(NCCc1ccc(Cl)cc1)c1ncn[nH]1,7.7%,1.8%,14.7%,-9.2%[46.1 µM],-0.3%,12.2%,4.3%,5.1%
COC(=O)COc1cccc2c(=O)n(CC(=O)NCc3ccccc3)ccc12,-0.5%,.,-21.8%,?,-20.0%,-10.6%,.,-1.4%
Cc1cccc(NC(=S)NC2CCCC2)n1,-0.1%,.,?,-17.4%,-11.1%,?,.,-45.0%
CCS(=O)(=O)N1Cc2ccccc2CC1C(=O)Nc1nnc(SCc2ccc(C#N)cc2)s1 (stereo not given),12.7%,25.1µM*,4.7%,-15.0%,-28.2%,0.4%,-5.6%,?
C=CCN1C(=O)NC2(CCCCC2)C1=O,-2.2%,4.5%,9.5%,?,-17.6%,23.2%,2.2%,1.0%
COc1ccc(N2C(=O)CN=C2Nc2nc(C)cc(C)n2)cc1,11.1%,-2.8%,-7.9%,6.9%,11.7%,8.1%,2.6%,?
Cc1ccccc1Nc1c(-c2ccc(N3CCOCC3)cc2)nc2cnccn12,1.1%,.,8.1%,?,21.2%,-3.8%[46.1 µM],.,5.4%
NS(=O)(=O)c1ccc(NC(=O)CSC2CCCCC2)cc1,-0.9%,-3.3%,-7.4%,23.3%,15.7%,-6.1%,3.7%,-1.0%
CCCCCOC(=O)C1[C@H]2C(=O)N(Cc3cccs3)C[C@]23C=C[C@H]1O3 (stereo not given in full),3.8%,2.3%,2.0%,-9.4%,5.5%,-13.7%,-2.2%,-1.5%

# More entries
SMILES,SARS PLP yeast,Cruzain inh noDet,RE007 growth inh,Marburg entry inh,2A StopGo,Lassa entry inh,Cruzain inh Det,NS1 function inh
CCOC(=O)CC1CCCCN1Cc1cn[nH]c1-c1ccc(F)cc1F (stereo not given),-0.1%,.,-9.3%,.,-10.7%,.,.,-1.2%
CC(N)(C(=O)O)c1ccc(C(=O)O)cc1 (stereo not given),.,2.3%,.,?,0.7%,32.0%,-1.5%,3.1%
CCOC(=O)CC1C(=O)NCCN1C(=O)c1c(F)cccc1F (stereo not given),0.0%,-11.3%,7.5%,8.6%,-3.2%,3.6%,-1.3%,0.3%
CO/N=C/C(C#N)=C/c1cc(C(=O)c2ccccc2)cn1C,4.8%,.,0.2%,?,-3.0%,?,.,.
COc1ccccc1CNC(=O)c1cccn1-c1nnc(N2CCCCC2)s1,.,-13.0%,.,.,11.2%,9.1%[46.1 µM],2.0%,.
COc1cccc(-n2c(-c3ccccc3)c[nH]c2=S)c1,0.2%,.,10.7%,0.3%[46.1 µM],-12.3%,-13.1%[46.1 µM],.,10.0%
COc1ccc(-n2c3c(cc(-c4nc(-c5ccc(C)cc5)cs4)c2=O)C(=O)CC(C)(C)C3)cc1,.,4.6%,.,-16.8%[46.1 µM],-9.0%,0.7%[46.1 µM],-2.9%,.
COc1ccc(C(=O)Nc2ccc(Nc3ccccc3)cc2)cc1[N+](=O)[O-],-10.6%,.,-23.3%,.,35.5µM*,.,.,-8.4%
CS(=O)(=O)N1CCC(C(=O)Nc2ccc(OCc3ccccc3)cc2)CC1,-0.9%,?,-14.8%,-1.3%,14.9%,-4.8%,0.1%,0.0%
Cc1cc(OCCn2cc(C(=O)c3ccco3)c3ccccc32)ccc1Cl,.,3.5%,.,?,-16.0%,-23.1%[46.1 µM],-8.2%,.
Cc1cc(C)c(-c2c(N)cc(Br)cc2Br)c(N)c1,.,.,7.5%,?,?,-28.0%[46.1 µM],.,.
Cc1ccccc1CNC(=O)CCNS(=O)(=O)c1ccc(OC(F)(F)F)cc1,-1.5%,.,11.3%,17.6%,13.6%,-1.3%,.,.
O=C(CSc1nnc(-c2cccs2)o1)Oc1ccccc1,.,-11.9%,.,-0.3%[46.1 µM],-12.6%,?,-6.5%,.
O=C(NCCCn1ccnc1)c1ccc2ccccc2c1,-0.5%,.,-11.7%,.,16.6%,.,.,-4.2%
CN1CC=C2C(C#N)=C(N)C(C#N)(C#N)[C@H](c3cccs3)[C@H]2C1,-11.3%,4.4%,-1.9%,-12.1%,-17.0%,-0.5%,-13.7%,10.1%
Cc1c(C(=O)NCCCN2CCOCC2)sc2nc(-c3ccccc3)cn12,25.0%,-29.4%,.,.,.,.,-16.1%,-3.6%
Cc1nnc(SCC(=O)c2cc(C)n(-c3ccc4c(c3)OCO4)c2C)s1,-5.0%,-29.9%,9.7%,?,.,-5.8%,-2.7%,-35.4%
S=c1[nH]nc(-c2cccnc2)n1/N=C/c1ccc(Br)s1,14.9%,3.6%,7.9%,?,-7.5%,5.3%,-7.1%,2.8%
CCOC(=O)C1CCCN(C(=O)c2ccccc2NS(=O)(=O)c2ccc(F)cc2)C1 (stereo not given),-4.4%,.,-25.6%,-5.4%[46.1 µM],-6.3%,1.1%[46.1 µM],.,.
Cn1c(=O)c2c(nc(Br)n2CCCc2ccccc2)n(C)c1=O,8.9%,-2.2%,1.0%,5.7%,-23.7%,-6.9%,-0.5%,-2.9%
Nc1ncnc2c1cnn2C1CC(O)C(CO)O1 (stereo not given),.,.,-2.1%,18.4%,-20.5%,-5.6%[46.1 µM],.,.
O=C(CCn1cnnn1)Nc1ccccc1,7.9%,0.3%,-2.3%,4.9%&4.9%,3.1%&34.3%,?,1.8%,.
O=C(COC(=O)c1cc2ccccc2cc1O)NC1CCCCC1,-7.8%,.,-4.9%,?,-20.0%,-10.5%,.,.
CN(C(=S)NC1CCCCC1)C1(c2ccccc2Cl)CCCCC1=O (stereo not given),-24.6%,18.9%,-4.9%,?,-2.2%,19.7%[46.1 µM],-3.7%,3.1%
O=C(COCc1nc2ccccc2c(=O)[nH]1)NC1CCCC1,12.9%,-9.1%,4.3%,17.5%,28.9%,10.2%,2.9%,-2.0%

# (further entries)
SMILES,SARS PLP yeast,Cruzain inh noDet,RE007 growth inh,Marburg entry inh,2A StopGo,Lassa entry inh,Cruzain inh Det,NS1 function inh
CC1(C)NC(=O)N(CCCCOc2ccc(Cl)cc2C=O)C1=O,4.2%,.,-6.1%,.,-6.7%,.,.,-3.7%
COc1ccc(CNC(=O)CN(Cc2ccc(C)cc2)C(=O)c2csnn2)cc1,-2.0%,.,2.6%,-20.4%[46.1 µM],-3.7%,?,.,-0.7%
Cc1ccc(/C=N/NC(=O)CSc2nc3ccccc3o2)cc1,-5.4%,-9.7%,-12.5%,?,38.3%[activator],-27.3%,-7.3%,-6.3%
CC(C)c1ccccc1NC(=S)NCC1(N(C)C)CCCCC1,-9.0%,.,-8.7%,.,2.5%,.,.,2.0%
C#CCNC(=O)C1=C[C@H](c2ccc3c(c2)OCO3)C[C@H](OCc2ccc(CO)cc2)O1,-3.0%,.,7.8%,.,5.5%,.,.,0.0%
CCN(C(=O)c1cccc(Br)c1)C1CCS(=O)(=O)C1 (stereo not given),0.7%,.,-2.2%,9.0%[46.1 µM],1.0%,7.9%,.,.
Clc1cccc(Cl)c1CN1CCN(c2ccccc2)CC1,-5.9%,8.3%,-29.7%,5.1%,.,11.8%,-1.3%,-6.3%
Fc1ccc(N=c2ssnc2Cl)c(F)c1,-2.7%,.,-13.8%,-15.0%[46.1 µM],-7.0%,2.5%[46.1 µM],.,.
